# Bioassay records deposited in PubChem BioAssay by several laboratories.
# UUG fidelity: modulators of yeast start codon fidelity, primary screen, whole organism, S. cerevisiae, single point, plate reader | S. cerevisiae UUG-firefly luciferase reporter, luminescence/redox ratio | activity score, % at 18.7 µM | 0.13% of 350,000 active | AID 602363, 2012;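 active = replicate mean at a twofold rise or more, about +100% in these data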;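 also: firefly luciferase made from a UUG start codon reports start codon fidelity; reporter light over untreated wells divided by growth signal over untreated wells; some hits fall short of that in this replicate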
# MT1-MMP act inh: blockers of MT1-MMP proenzyme processing, primary screen, HT1080 RFP-PRO-GFP cells, GFP/RFP fluorescence; Matrix metalloproteinase-14 (Homo sapiens), P50281; GFP/RFP ratio fluorescence, overnight; percent of plate control window, DMSO zero; GFP/RFP ratio change, % at 20 µM; 0.061% of 360,000 active; AID 651647, 2012;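 active = GFP/RFP ratio change of at least 30% with cell ATP level not reduced by more than half and red fluorescence within 50% of control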; also: strong numbers were not always called active
#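 Assay system: HT1080 RFP-PRO-GFP cells. Benchmarks: DMSO vehicle wells and RFP-L50D-GFP reporter cell wells. Times: overnight cell settling, then overnight compound exposure, 37 °C, 5% CO2. Compound: 20 µM single dose, 1% DMSO. Read-out basis: GFP/RFP fluorescence ratio.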
# CSC inhib: cancer stem cell viability inhibitors, primary screen, luminescence | cancer stem cell-like cells viability | inhibition, % at 7.5 µM | 1.1% of 300,000 active | AID 2717, 2010;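 active = mean at 75% or more and at least half the replicates too; inconclusive = mean and replicates disagree; tested in HMLE shEcad cells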;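 also: 0% = median of negative and 100% = median of positive control wells; the first replicate is given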
# PABP FP inh: PABP poly(A) RNA binding inhibitors, primary screen, biochemical, fluorescence polarization, uHTS. Polyadenylate-binding protein 1 (Homo sapiens), P11940. inhibition, % at 35 µM. 1% of 290,000 active. AID 2014, 2009;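 active = 50% or more with normal probe brightness, or confirmed in later tests; inconclusive = above 50% with abnormal brightness, or retests that disagree; inactive = below 50% or failed in later tests; about a fifth of its hits are not listed in these tables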;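 also: calls also rest on retests at 20 µM and on dose response follow-up; controls were probe without protein and protein plus probe with vehicle; some compounds called inactive have numbers as strong as hits; many hits fall short of the cut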
# Target sequence (P11940 whole entry, looked up): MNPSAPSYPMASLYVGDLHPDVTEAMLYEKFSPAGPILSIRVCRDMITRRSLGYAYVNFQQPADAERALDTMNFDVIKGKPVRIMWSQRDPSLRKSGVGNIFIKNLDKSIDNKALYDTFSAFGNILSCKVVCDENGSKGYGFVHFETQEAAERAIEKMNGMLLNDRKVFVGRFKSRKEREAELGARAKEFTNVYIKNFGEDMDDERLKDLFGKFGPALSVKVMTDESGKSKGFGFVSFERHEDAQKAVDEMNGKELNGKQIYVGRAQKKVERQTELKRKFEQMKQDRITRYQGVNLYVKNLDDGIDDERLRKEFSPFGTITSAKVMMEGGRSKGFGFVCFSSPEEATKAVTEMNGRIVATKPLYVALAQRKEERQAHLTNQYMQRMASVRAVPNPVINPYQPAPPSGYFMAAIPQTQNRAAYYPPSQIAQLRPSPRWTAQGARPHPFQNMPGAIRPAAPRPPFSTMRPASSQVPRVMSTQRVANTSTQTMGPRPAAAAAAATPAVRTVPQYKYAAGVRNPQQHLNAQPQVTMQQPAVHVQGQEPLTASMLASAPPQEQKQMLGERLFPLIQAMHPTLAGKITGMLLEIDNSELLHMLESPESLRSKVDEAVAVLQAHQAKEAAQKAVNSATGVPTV
# eIF4H FP inh: human eIF4H binding inhibitors, primary screen, translation initiation inhibitor project, biochemical, uHTS, fluorescence polarization | Eukaryotic translation initiation factor 4H (Homo sapiens), Q15056 | eIF4H fluorescence polarization binding assay | inhibition, % at 35 µM | 0.94% of 290,000 active | AID 2012, 2009;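 active = 50% or more with normal probe brightness, or confirmed in later tests; inconclusive = above 50% with abnormal brightness, or retests that disagree; inactive = below 50% or failed in later tests; about a fifth of its hits are not listed in these tables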;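 also: calls also rest on retests at 20 µM and on dose response follow-up; 0% = protein and probe with vehicle and 100% = probe without protein; strong numbers were not always called active; many hits fall short of the cut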
# Env fusion inh: inhibitors of HIV-1 Env-driven cell-cell fusion, primary screen, HeLa-JRFL effector, CEM21 target cells, luciferase; inhibition, % at 12.3 µM; 1.1% of 360,000 active;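 active = mean replicate inhibition score of at least 50 and every replicate individually at or above 50; inconclusive = only one of the two criteria met; inactive = mean below 50 and not all replicates reaching 50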;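 also: 0% = plate neutral controls and 100% = maraviroc near 300 nM; one replicate is shown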
# Rce1 inhib: yeast Rce1p protease inhibitors, primary screen, biochemical, fluorescence, cell-free homogeneous; CAAX prenyl protease 2 (Saccharomyces cerevisiae (strain ATCC 204508 / S288c)), Q03530; yeast membranes, quenched prenylated peptide cleavage fluorescence; calls only; 0.27% of 290,000 active; AID 2563, 2010;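 active = fall in fluorescence gain of 50% or more versus controls, with final raw signal at or below 3038400; inconclusive = same 50% fall but final raw signal above 3038400; inactive = fall in fluorescence gain under 50%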;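 also: plate controls were neutral control wells for no effect and wells lacking membranes for full effect; tested at 10 µM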
# MT1-MMP act inh RFP: recorded beside MT1-MMP act inh, whose call it bears; RFP signal change, %; measured here: RFP expression control read;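 0 = vehicle wells; hits needed this value within 50% of zero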
# An asterisk follows results filed as active; i = inactive; ? = inconclusive; . = not tested or not shown.
entry	SMILES	Env fusion inh	MT1-MMP act inh	PABP FP inh	CSC inhib	MT1-MMP act inh RFP	eIF4H FP inh	UUG fidelity	Rce1 inhib
1	C/C(CC(=O)Nc1cc(C)ccn1)=N\NC(=O)c1ccc(C(C)(C)C)cc1	-8	-1	-13	-14	3	-5	-7	.
2	Cc1nc2c(C)cccc2c2c1CCN2c1ccccc1F	-2	-2	0	-11	-3	-3	.	i
3	COc1cc(NC(=O)[C@H]2CSCN2C(=O)[C@@H]2CCC(=O)N2)cc(OC)c1OC	-2	2	1	-9	6	-1	-18	i
4	COc1ccc(NS(=O)(=O)c2ccc(F)c(F)c2F)cc1S(=O)(=O)N1CCOCC1	9	-1	.	-14	0	.	7	.
5	COc1cccc(N2CCN(c3ccc4nnc(CCC(=O)N5CCC(C)CC5)n4n3)CC2)c1	2	2	0	-6	0	-2	-14	i
6	COCCN(C(=O)COC(=O)CCOc1ccccc1)c1c(N)n(Cc2ccccc2)c(=O)[nH]c1=O	-2	-1	.	.	3	.	-13	i
7	CCCCC(=O)Nc1ccc(C(=O)Nc2ccc3c(c2)OCO3)cc1	.	2	-5	.	0	0	-13	i
8	CCOC(=O)CN(C(=O)CNC(=O)c1ccco1)C(C(=O)NC1CCCCC1)c1cccc(OC)c1 (stereo not drawn)	.	0	-4	-15	3	-5	-7	i
9	NC(=O)C1CCN(C(=O)CCSCc2ccccc2)CC1	-9	-4	-2	-6	-2	-9	-7	i
10	COc1ccc([C@H]2CC(=O)C=C(c3ccc(Cl)c(C(F)(F)F)c3)C2)cc1	5	.	.	39	.	.	-15	.
11	Cn1cc(C(=O)NC2CCCCC2)c(=O)c2cc(S(=O)(=O)N3CCCC3)ccc21	-18	0	-5	-8	2	9	-14	i
12	N#CC1=C(SCC(=O)c2ccc(Cl)cc2)NC2=C(C(=O)CCC2)C1c1ccco1 (stereo not drawn)	.	-37	15	93*	-18	26	-5	i
13	CCCCN(CCCC)C(=O)CCS(=O)(=O)c1ccc2c(c1)n(C)c(=O)c(=O)n2C	.	6	2	-5	3	-18	-3	i
14	O=C(CCS(=O)(=O)Cc1ccc(Cl)cc1)NCCc1ccccc1	3	2	6	0	2	-2	-18	i
15	CCO[C@H]1OC(C(N)=O)=C[C@@H](c2ccccc2)[C@@H]1CCCO	9	2	-2	-6	3	-6	-11	i
16	O=C(O)Cn1c2c(c3ccccc31)CSc1ccc(Cl)cc1-2	15	2	23	-25	4	7	-16	i
17	COc1c(C)cc(Br)cc1C(=O)Nc1ccc(C)cc1[N+](=O)[O-]	18	0	19	-4	4	-4	3	i
18	Cc1ccccc1OCCN1CCCC1	-17	-1	3	-2	0	-6	-2	i
19	CC(CCc1ccccc1)NC(=O)CN(C)Cc1ccc(F)cc1 (stereo not drawn)	-6	-1	2	-1	2	-6	-20	i
20	CCOC(=O)C1CCCN(C2=NC(=O)/C(=C/c3ccc(OC)cc3)S2)C1 (stereo not drawn)	3	-1	0	-9	2	-9	-17	i
21	O=C(CCn1cccc1)NCc1ccc(Cl)cc1	.	1	-6	5	2	4	-7	i
22	CN(C)CCCN1C(=O)C(O)=C(C(=O)c2cc3ccccc3o2)C1c1ccccc1 (stereo not drawn)	.	0	-9	5	-1	-10	-5	i
23	O=C(CCS(=O)(=O)c1ccc(Br)s1)NCc1cccs1	-15	3	3	11	2	-10	-7	i
24	COc1ccc(CCn2c(N)c(C(=O)NCc3ccco3)c3nc4ccccc4nc32)cc1	-31	-29	6	57	-12	0	.	i
25	COc1cc2c(OC)cccc2cc1C(=O)O	-85	8	7	-10	5	-4	1	i

# In the list so far, two have a COOH group.
entry	SMILES	Env fusion inh	MT1-MMP act inh	PABP FP inh	CSC inhib	MT1-MMP act inh RFP	eIF4H FP inh	UUG fidelity	Rce1 inhib
16	O=C(O)Cn1c2c(c3ccccc31)CSc1ccc(Cl)cc1-2	15	2	23	-25	4	7	-16	i
25	COc1cc2c(OC)cccc2cc1C(=O)O	-85	8	7	-10	5	-4	1	i

# Further entries
entry	SMILES	Env fusion inh	MT1-MMP act inh	PABP FP inh	CSC inhib	MT1-MMP act inh RFP	eIF4H FP inh	UUG fidelity	Rce1 inhib
26	CCOC(=O)C1CCCN(Cc2nc(C3CC3)no2)C1 (stereo not drawn)	-6	-3	0	-3	3	-6	-23	i
27	CCCC(=O)Nc1nnc(-c2ccc3c(c2)OCO3)s1	13	3	13	30	1	13	-15	i
28	O=C(NCc1ccccc1)C1CCCN(c2nc3ccsc3c(=O)s2)C1 (stereo not drawn)	16	1	-11	-17	-2	-1	.	i
29	Cc1ccccc1S(=O)(=O)NC(=O)C1(C)CCN1C(=O)Cc1cc(F)ccc1F (stereo not drawn)	-18	1	.	.	4	.	-13	.
30	CC1CN(c2ccc([N+](=O)[O-])nc2)CC(C)O1 (stereo not drawn)	-105	3	0	.	3	-4	.	i
31	COc1ccc(C(C#N)Nc2ccccc2)cc1 (stereo not drawn)	.	.	-1	-17	.	-1	.	i
32	COCCNC(=S)NNc1ccccc1[N+](=O)[O-]	-4	10	4	.	0	0	.	i
33	C=CCN(C(=O)c1csnn1)C(C(=O)NCc1ccc(F)cc1)c1ccccc1F (stereo not drawn)	1	0	5	-8	0	2	-12	i
34	CC(=O)Nc1ccc(S(=O)(=O)NNC(=O)COc2cccc(C)c2)cc1	.	0	7	.	2	-6	.	i
35	COc1cc(OC)cc(C(=O)OCC(=O)Nc2ccc(N3CCCCC3)cc2)c1	.	0	4	-12	0	-3	-3	i
36	NC(=O)C1CCN(C(=O)CSCc2ccccc2Cl)CC1	11	0	-2	0	4	-8	-5	i
37	Cn1cc(/C=C(\NC(=O)c2ccccc2Cl)C(=O)N2CCOCC2)c2ccccc21	7	2	4	-18	1	6	-8	i
38	O=c1[nH]ncn2cccc12	.	-4	-9	16	7	-4	-21	i
39	COc1cc(F)ccc1-c1csc(C(C)(O)c2ccccc2)n1 (stereo not drawn)	3	-1	.	.	-2	.	-9	.
40	CN(C)c1ccc(C2SCCN2C(=O)c2ccc([N+](=O)[O-])cc2)cc1 (stereo not drawn)	-16	0	24	-13	-2	1	.	i
41	CCNS(=O)(=O)c1ccc(CCC(=O)Nc2ccc3c(c2)OCCO3)cc1	18	1	17	.	-3	-3	-4	i
42	C=CCSc1cc(C)nc2c(-c3ccc(Cl)cc3)c(C)nn12	.	5	0	15	-2	-3	-18	i
43	Fc1ccccc1Cn1nnc2c(NCc3ccccn3)ncnc21	.	-5	2	-4	-3	-7	-11	i
44	CCN(CC)S(=O)(=O)c1cccc(C(=O)OCC(=O)Nc2ccccc2OC(F)F)c1	8	2	-5	0	5	-3	-8	i
45	Cc1ccc(-c2nc(CS(=O)CC(=O)NC3CCCC(C)C3C)c(C)o2)cc1 (stereo not drawn)	17	4	6	-7	-1	6	-17	i
46	Cc1ccc(C(=O)COC(=O)COc2ccccc2O)cc1C	12	-3	.	-4	-4	.	-5	.
47	O=C(Nc1ccc(-c2ccc3nncn3n2)cc1)c1ccc(Br)o1	-6	6	-9	2	3	-2	.	i
48	Nc1cnc(Nc2ccc(Br)cc2)nc1N	-25	11	9	9	7	-6	1	i
49	COC(=O)[C@@]12CCCCN1[C@H](c1ccc(-c3cccc(Cl)c3)cc1)[C@H]1C(=O)N(C)C(=O)[C@H]12	21	3	.	49	2	.	-16	i
50	Cc1cccc(N(C(=O)c2sc(C)nc2C)C(C(=O)NCC2CCCO2)c2ccccc2)c1 (stereo not drawn)	2	0	0	8	6	1	-8	i
51	CCn1c(SCC(=O)N/N=C/c2ccccc2OCC(=O)O)nnc1-c1ccc(C)cc1	-9	4	-1	2	7	-11	-8	i
52	CCCCCCCCN1[C@@H](CC(=O)OC)c2cc(C(F)(F)F)ccc2S1(=O)=O	15	0	.	-2	-4	.	-6	i
53	COc1c(S(=O)(=O)N2CCN(C)CC2)ccc(Cl)c1Cl	0	1	-1	-10	4	6	-17	i
54	Cc1ccc(CN2CC(N3CCC(Cc4ccccc4)CC3)CS2(=O)=O)cc1 (stereo not drawn)	14	2	.	.	-7	.	7	.
55	COc1ccccc1-n1c(SCC(=O)Nc2nnc(C)s2)nc2c(c1=O)SCC2	-10	2	-7	3	-1	9	-9	i
56	CC1=C(C(=O)Nc2cccc(C)c2C)C(c2cccs2)NC(=S)N1 (stereo not drawn)	25	-3	9	-11	-2	6	-17	i
57	NC(=O)/C(=C\c1ccccc1)NC(=O)/C=C/c1ccccc1	3	1	1	-8	4	-1	-19	i
58	O=C(CSc1n[nH]c(-c2ccco2)n1)Nc1ccccc1	-6	-5	.	-3	6	.	-4	i
59	Cc1cc(C)n(-c2nc(C)nc3c2cnn3-c2ccccc2)n1	.	-2	10	-2	-2	2	-7	i
60	CC(CC1CC(C)(C)OC1=O)C(=O)Nc1nncs1 (stereo not drawn)	.	8	2	-1	4	7	-4	i
61	CC(C)(C)C1=NN(C(=O)c2ccccc2)C(O)(C(C)(C)C)C1 (stereo not drawn)	.	1	-6	-15	5	4	.	i
62	Fc1cccc(Cl)c1CSc1ccc(-c2ccco2)nn1	-24	1	-7	8	-5	49	.	i
63	COCCn1c(SCC(=O)N2CCc3ccccc32)nc2c(c1=O)SC(C)C2 (stereo not drawn)	33	1	-3	-10	1	3	-11	i
64	Cc1ccc(-c2nnc(SC(C)C#N)n2N)cc1 (stereo not drawn)	-45	5	2	1	3	-8	4	i
65	CCOC(=O)C[N+]1(C)CCN(C(C)=O)CC1	2	3	-12	-6	3	-4	.	i
66	Cc1ccccc1OCC(=O)N/N=C/c1ccncc1	.	-3	-3	-11	-1	9	.	i
67	CCC(=O)Nc1ccc(C(=O)Cn2ncc(Cl)c(Cl)c2=O)cc1	-43	-1	14	?	2	37	-13	i
68	c1ccc2c(c1)OCC(CNCC1COc3ccccc3O1)O2 (stereo not drawn)	-29	3	-1	-12	0	0	-17	i
69	Cc1ccc(CC2C(=O)N(c3ncccn3)C(=O)C2C)cc1 (stereo not drawn)	17	-2	8	-2	0	-1	-2	i
70	Cc1ccccc1C1NC(=S)NC2=C1C(=O)CCC2 (stereo not drawn)	-4	-4	-6	-16	-4	-5	-24	i
71	Cc1ccc(C)c(N2CCN(C(=O)c3ccc(N4CCCC4=O)cc3)CC2)c1	.	3	-18	.	1	-12	0	i
72	Cc1cc(NC(=O)c2cc(Cl)ccc2Cl)no1	.	-2	-8	.	-1	-9	-12	i
73	O=C(O)c1cnn2c(C(F)F)cc(C3CC3)nc12	.	0	7	0	5	5	-7	i
74	Cc1cc(C)n(C(=O)CNC(=O)c2ccc(Cl)cc2Cl)n1	1	2	7	-10	3	-2	.	i
75	COc1cc(CNCCN2CCOCC2)ccc1OCc1ccc(Cl)cc1Cl	.	-3	11	.	-1	3	4	i
76	COc1ccc(C(=O)COC(=O)C(CCCCN2C(=O)C3C4C=CC(C4)C3C2=O)N2C(=O)C3C4C=CC(C4)C3C2=O)cc1 (stereo not drawn)	31	2	5	.	0	10	.	i

# A portion of the library. The share of hits here may be higher or lower than overall.
